gsp antag = antagonists of gsp mutant (McCune-Albright syndrome); gsp-mutant cells, cAMP HTRF, 30 min; control for the full effect not named in the record; Potency, µM (series often up to 76.9 µM), without a hit: at the top dose activity change, negative = inhibition, most hits filed as inhibitors; 340,000 tested, 0.4% active; AID 624288; active = falling curve of any shape with a large fitted effect; inconclusive = falling curve, mostly with a smaller effect; inactive = flat or rising curve; cell line not stated here;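 further: intracellular cAMP measured with PDE inhibitor Ro 20-1724 present during compound exposure; potency means the concentration at half of the fitted maximal effect; on the % scale 0 is the no-effect control and ±100 the full control effect; nearly all actives have a fitted effect of over 65% in size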
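G418-selected cells were plated in DMEM/10% FBS for 16-24 h at 37C, then treated with compounds plus the PDE inhibitor […] (300 uM solution added) for 30 min at 37C. Intracellular cAMP was measured by HTRF after 30 min lysis at room temperature.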
TRPV1 potentiator = enhances activation of the human vanilloid receptor TRPV1; TRPV1-expressing cells, Fluo-8 calcium influx, capsaicin EC20 potentiation; host cell line not named in the record; control for the full effect not named in the record; potentiation, % at 8.33 µM; 320,000 tested, 0.02% active; AID 540277; active means potentiation above 80%; inconclusive means 30% to 80%; inactive means below 30%; further: 0% is about no effect
Target sequence (Q8NER1 whole entry, looked up): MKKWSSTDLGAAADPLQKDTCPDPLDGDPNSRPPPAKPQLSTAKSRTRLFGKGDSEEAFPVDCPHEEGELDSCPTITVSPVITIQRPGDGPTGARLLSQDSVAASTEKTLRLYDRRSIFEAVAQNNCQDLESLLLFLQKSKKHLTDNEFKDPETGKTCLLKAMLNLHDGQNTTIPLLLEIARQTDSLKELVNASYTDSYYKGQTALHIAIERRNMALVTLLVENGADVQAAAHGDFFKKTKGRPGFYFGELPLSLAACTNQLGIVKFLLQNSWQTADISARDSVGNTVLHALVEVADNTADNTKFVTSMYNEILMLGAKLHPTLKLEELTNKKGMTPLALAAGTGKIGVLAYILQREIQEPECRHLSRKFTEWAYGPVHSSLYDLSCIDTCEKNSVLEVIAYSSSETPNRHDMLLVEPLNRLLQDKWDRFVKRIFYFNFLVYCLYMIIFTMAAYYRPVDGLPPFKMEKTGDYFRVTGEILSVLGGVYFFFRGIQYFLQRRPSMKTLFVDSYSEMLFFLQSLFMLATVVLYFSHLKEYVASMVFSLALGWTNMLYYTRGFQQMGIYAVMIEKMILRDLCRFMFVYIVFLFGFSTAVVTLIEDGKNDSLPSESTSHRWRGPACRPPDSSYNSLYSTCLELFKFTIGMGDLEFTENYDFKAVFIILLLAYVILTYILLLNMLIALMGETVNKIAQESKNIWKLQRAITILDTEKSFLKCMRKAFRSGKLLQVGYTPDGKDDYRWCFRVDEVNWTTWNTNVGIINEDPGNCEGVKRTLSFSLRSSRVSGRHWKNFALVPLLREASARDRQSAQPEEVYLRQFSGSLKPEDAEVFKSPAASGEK
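Cells expressing TRPV1 were dye-loaded with Fluo-8 and read kinetically: 10 s baseline, 3 min after compound (agonist portion), then 2 min after EC20 capsaicin (allosteric enhancer portion). Calcium-bound dye fluorescence at 480/520 nm.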
Sfp inh = Sfp phosphopantetheinyl transferase inhibition | Biochemical Sfp PPTase activity, qHTS | Potency, µM, without a hit: max response, negative = inhibition, actives largely listed as inhibitors | 310,000 tested, 3.5% active | Q9F4F7; active means well fitted inhibition curve with a large enough effect; inconclusive means small, poorly fitted or top-dose-only effect, or another doubt; inactive means no such curve, though single readings can be large or run the other way;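 further: the enzyme is Sfp with the accession as filed and its product quenches rhodamine fluorescence; potency means the concentration at half of the fitted maximal effect; 0% = enzyme reaction without inhibitor and -100% = no enzyme wells; top concentration of the series not given in the record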
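Sfp 15 nM + cpd, 15 min RT; start w/ rhodamine-CoA 5 uM, BHQ-2-YbbR 12.5 uM (final); 50 mM Hepes pH 7.6, 10 mM MgCl2, 0.01% NP-40, 0.01% BSA; read 525/598 nm at 0 and 30 min.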
gsp agonist = gsp mutant agonism. gsp mutant cells, cAMP HTRF, 30 min; control for the full effect not named in the record. Potency, µM (series often up to 76.9 µM), inactives show at the top dose activation (cAMP increase), actives largely listed as activators. 340,000 tested, 0.13% active. AID 624287; active = well fitted activation curve with a large enough effect; inconclusive = small, poorly fitted or top-dose-only effect, or another doubt; inactive = no such curve, though single readings can be large or run the other way; cell line not stated here;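 further: phosphodiesterase inhibitor Ro 20-1724 added with compounds to block cAMP breakdown; potency means the concentration at half of the fitted maximal effect; nearly all actives have a fitted effect of over 60% in size; about a fifth of the inactives were tested at one dose only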
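Cells stably selected in G418 were plated at 2000/well, grown 16-24 hr, then given compounds in DMSO with the PDE inhibitor […] (300 uM solution added) for 30 min at 37C; cAMP was read by HTRF.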
ClpP mod = qHTS Assay for Activators of ClpP | ATP-dependent Clp protease proteolytic subunit (Bacillus subtilis (strain 168)), P80244 | purified B. subtilis ClpP, FRET peptide cleavage, 20 min | 340,000 tested, 1.9% active | Potency, µM (highest dose often 57.5 µM), without a hit: at the top dose activity change, negative = active; active = well fitted falling curve with a large enough effect; inconclusive = small, poorly fitted or top-dose-only effect; inactive = no such curve, though single readings can be large or run the other way; further: potency means the concentration at half of the fitted maximal effect; the source files actives as falling curves though it sought activators and does not explain the sign; nearly all actives have a fitted effect of over 65% in size; many hits overshoot -100%
Target sequence (P80244 whole entry, looked up): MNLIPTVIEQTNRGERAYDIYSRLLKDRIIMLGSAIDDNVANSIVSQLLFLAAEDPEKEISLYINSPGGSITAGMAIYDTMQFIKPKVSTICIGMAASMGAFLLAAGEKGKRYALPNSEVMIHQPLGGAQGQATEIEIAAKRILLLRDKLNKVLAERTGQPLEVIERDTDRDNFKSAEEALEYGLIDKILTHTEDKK
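FRET quenching reversal measured ClpP activation: 10 microg/mL B. subtilis ClpP at pH 8 with the FRET-FV decapeptide, read at 430 nm after 320 nm excitation. The 20-min minus 0-min signal was scaled between DMSO/no-enzyme wells and ADEP (5.8 microM final).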
CtBP-E1A blk = CtBP/E1A binding inhibition; 340,000 tested, 0.49% active; activity change, % (concentration not given with the values); AlphaScreen GST-E1A/His-CtBP binding, 1536-well; stronger effect = lower value; control for the full effect not named in the record; in the data active means activity change below about -65%; inconclusive means about -30% to -65%; inactive means above about -30%; further: on the % scale 0 is the no-effect control and ±100 the full control effect
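AlphaScreen with 125 nM GST-E1A and 125 nM His-CtBP (5X stocks) in Tris pH 8.0, 300 mM NaCl, BSA, Tween 20, TCEP. Compounds preincubated 2 h at 37 deg C, then glutathione donor/nickel acceptor beads added for 1 h at 37 deg C in dark.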
Menin-MLL FL inh = inhibitors of human menin-MLL interaction, wild-type MLL peptide; Fluorescence polarization, fluorescein-MLL peptide displacement from menin; FP activity change, % at 61.4 µM; 290,000 tested, under 10 active; AID 1766; inconclusive = falling polarisation curve, or a change in total fluorescence; inactive = total fluorescence flat and polarisation flat or rising; no compound was filed as active; the % refers to the polarisation; negative = inhibition;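 further: % of control where 0% means no effect; inhibitors lower the polarisation; unlabelled MLL peptide was the positive control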
* = called active by the depositor; u = inconclusive; x = no result given; & = joins results of further samples; [ ] = another dose, or the depositor's remark.

The line under a structure holds: gsp antag | TRPV1 potentiator | Sfp inh | gsp agonist | ClpP mod | CtBP-E1A blk | Menin-MLL FL inh
[1] O=C(O)CSc1nnc(Cn2c(=O)sc3ccccc32)n1-c1cccc(Cl)c1
  8% | 2 | 22% | -6% | -1.5% | -2 | 0.7
[2] COc1cc(COc2ccc(S(=O)(=O)N3CCOCC3)cc2[N+](=O)[O-])ccc1OC(F)F
  -3% | x | x | 10% | 1.8% | -9 | x
[3] O=S(=O)(Nc1ccc2cn[nH]c2c1)c1ccc(Cl)s1
  -1% | -6 | 15% | 2%[15.4 µM] | x | 5 | -2.0
[4] CCOC(=O)C1=C(N)OC2=C(C(=O)CCC2)C1c1ccccc1OC (configuration not stated)
  10% | 8 | 1% | -9% | 0.8% | 11 | 0.4
[5] O=C(Nc1ccc(Cl)cc1)c1nc[nH]c1C(=O)NCCN(CCNC(=O)c1[nH]cnc1C(=O)Nc1ccc(Cl)cc1)CCNC(=O)c1[nH]cnc1C(=O)Nc1ccc(Cl)cc1
  -10% | x | x | x | u | -12 | x
[6] Cn1c(N)c(C(=O)CSc2nnc(C3CC3)n2Cc2ccccc2)c(=O)n(C)c1=O
  2% | x | x | 25% | x | 3 | x
[7] CCS(=O)(=O)c1ccc(-c2csc(-c3ccccc3)n2)c(Cl)c1Cl
  -14% | -1 | -9% | 12% | u | 14 | -1.3
[8] O=c1c2[nH]c3cccc(Cl)c3c2ncn1CC1CCCO1 (configuration not stated)
  6% | 8 | 17% | -53%[inhibitor][15.4 µM] | x | -5 | 2.3
[9] C#CCOCCOCCOCCNc1nc(N2CCN(C(=O)C(Cc3ccc(O)cc3)n3cc(C(N)CC(C)C)nn3)CC2)nc(N2CCN(C(=O)C(Cc3cc4ccccc4[nH]3)n3cc(C(N)C(C)CC)nn3)CC2)n1 (configuration not stated)
  x | 1 | -3% | x | x | x | 5.9
[10] COc1ccc(CCN(Cc2cc3cc4c(cc3[nH]c2=O)OCO4)C(C)=O)cc1OC
  x | -14 | 13% | x | x | x | -1.1
[11] Cc1ccc(-n2ncc3c2CCCC3NC(=O)c2cnccn2)cc1C (configuration not stated)
  -21% | -6 | 6% | -11% | 1.9% | -11 | x
[12] COc1ccc(CCN(Cc2ccccn2)C(=S)Nc2cccc(SC)c2)cc1OC
  -1% | u | 45µM* | 22%[15.4 µM] | x | 5 | -1.7
[13] Cn1cnc(S(=O)(=O)N2CCN(C(c3ccc(F)cc3)c3ccc(F)cc3)CC2)c1
  -4% | -8 | 8% | 23% | -0.4% | 4 | 0.1
[14] Clc1ccc2nncn2n1
  1% | 9 | 15% | -22% | u | x | 0.9
[15] COc1ccc(C(CNC(=O)Nc2ccc(Cl)cc2)N2CCN(C)CC2)cc1 (configuration not stated)
  10% | -2 | -4% | 17% | -4.4% | 0 | -0.4
[16] COc1cc(C(=O)Nc2scc(-c3ccccc3)c2C(=O)O)cc(OC)c1OC
  -25% | 1 | 14% | 19% | -3.1% | -5 | -2.2
[17] CC1CCCC(NC(=O)COC(=O)CCC(=O)c2ccc(F)cc2)C1C (configuration not stated)
  -4% | x | x | -1% | 2.5µM* | 5 | x
[18] CC1CCN(C(=O)c2ccc3c(c2)OCO3)CC1
  5% | 0 | 10% | u | -3.8% | 1 | x
[19] O=C(COc1cccc2ccccc12)N1c2ccccc2CCc2ccccc21
  u | -4 | 1% | -5% | u | -13 | -1.5
[20] Cn1c(N)c(C(=O)COC(=O)Cc2ccc(Cl)cc2Cl)c(=O)n(C)c1=O
  -4% | 14 | x | 4%[15.4 µM] | 0.4% | 0 | x
[21] Cn1cnc2cc(OC(=O)c3ccccc3)ccc21
  0% | -7 | 9% | -12% | 1.5% | -1 | -2.4
[22] Cc1ccc(C(C)CCN2CCC(n3nccc3NC(=O)c3ccccc3)CC2)o1 (configuration not stated)
  12% | -1 | -23% | -41% | 0.5% | -1 | 0.3
[23] Cc1cc(O)c(-c2cc(O)c(C)cc2O)cc1O
  -4% | 4 | 2.5µM* | 2% | -12% | x | 2.3
[24] O=C(O)C1CC(=O)N(CCc2ccc(F)cc2)C1 (configuration not stated)
  -6% | -6 | -2% | 6%[15.4 µM] | -1.2% | -4 | -5.3
[25] CCCCNC(=S)NNC(=O)c1ccoc1C
  4% | -9 | 14% | -37%[inhibitor] | 0.2% | 17 | 1.8
[26] Cc1nc2ccccc2nc1-c1ccc([N+](=O)[O-])cc1
  4% | x | x | u | x | -10 | x
[27] CC(=O)Nc1ccccc1C(=O)C(=O)Nc1ccc(C(=O)N2CCOCC2)cc1
  15% | -10 | -6% | -31%[15.4 µM] | x | -7 | 0.1
[28] N#Cc1ccc(C(=O)NC2CCCc3ccccc32)cc1 (configuration not stated)
  8% | -10 | 2% | 14%[15.4 µM] | x | 0 | -3.6
[29] COC(=O)c1sc(NC(=O)CSc2nncs2)c(C(=O)OC)c1C
  -7% | -8 | -18% | 2% | -4.8% | -4 | u
[30] Cc1cc(=O)[nH]c(SCC(=O)c2c(N)n(C)c(=O)n(C)c2=O)n1
  36%[activator] | 5 | 12% | 25µM* | -24% | -3 | 0.3
[31] O=C(CNC(=O)c1ccccc1C(=O)O)c1ccccc1
  0% | -12 | 15% | -10% | 0.5% | 7 | 3.6
[32] COc1ccc(S(=O)(=O)N2CCOCC2)cc1NC(=O)CSc1ccc(F)cc1
  -3% | -9 | x | -1% | -3.4% | -10 | x
[33] Cc1ccc(CN=c2c([N+](=O)[O-])nn(-c3cccc(Cl)c3)n2O)cc1
  -15% | 5 | -9% | -80%[inhibitor][15.4 µM] | x | u | -1.3
[34] Cn1nccc1C(=O)N1CCN(c2ccccc2Cl)CC1
  11% | -10 | 13% | 23% | -0.7% | 9 | x
[35] O=C(CSc1nnc(-c2ccoc2)o1)N1CCOCC1
  2% | -21 | -5% | -41%[inhibitor] | -2.1% | 9 | 2.0
[36] C#CCN(C(=O)C1CCC(=O)N(CCc2cccc(F)c2)C1)C1CCCCC1 (configuration not stated)
  x | x | x | 25% | -0.7% | 3 | x
[37] Cc1nnc(NC(=O)CSc2nccn2Cc2ccc(F)cc2)s1
  -34% | -5 | 14% | -28% | -0.4%&-1.4% | 0 | x
[38] CCOC(=O)c1cnn(-c2ccccc2)c1NC(=O)c1ccccc1
  -7% | 1 | 1% | u | -0.7% | 0 | -1.5
[39] CSc1nnc2c(=O)[nH]c(=O)n(C)c2n1
  -9% | x | x | u | x | -2 | x
[40] NS(=O)(=O)c1ccc2c(c1)C(=NO)c1cc(S(N)(=O)=O)ccc1-2
  4% | 6 | -2% | -13% | x | -13 | 0.0
[41] Cc1ccc(OCCN2C(=O)c3ccccc3C2=O)c([N+](=O)[O-])c1
  0% | 5 | -4% | -3%[15.4 µM] | x | 1 | x
[42] Cc1cc(C(=O)CSc2nc(N)cc(N)n2)c(C)n1-c1cccc(C(F)(F)F)c1
  -9% | -1 | 23% | 25% | 1.4% | 14 | 6.1
[43] COc1cccc(OC)c1C(=O)NNC(=O)c1ccc(F)cc1
  16% | 4 | 17% | 11%[15.4 µM] | -4.5% | 4 | 0.1
[44] Cc1ccc(CCc2nnc(SCC(=O)Nc3ccccc3Cl)n2-c2ccccc2)o1
  -14% | -15 | -22% | -11% | 55% | 0 | 7.8
[45] Cc1ccc(C)c(NC(=O)c2ccc(N(C)S(C)(=O)=O)cc2)c1
  2% | -4 | 5% | -44% | 0.4% | 1 | -1.2
[46] CC(NC(=O)c1ccc(Cl)cc1)c1nnc(SCC(=O)NC2=NCCS2)n1C (configuration not stated)
  2% | 2 | 11% | -1% | x | 0 | -5.5
[47] CC1Cc2ccccc2N1C(=O)CNc1ccccc1N1CCCCC1 (configuration not stated)
  -20% | -6 | 3% | 21%[15.4 µM] | -4.9% | -21 | -2.6
[48] NCCCC[C@H](NC(=O)C1CCNCC1)c1nnc([C@@H](N)CO)o1
  10% | 3 | -6% | -6% | -0.5% | x | -4.2
[49] COc1ccc(NC(=O)C2=Cc3ccccc3OC2)cc1
  -16% | -10 | -4% | -22%[15.4 µM] | x | x | -3.1
[50] Cc1ccccc1-c1nc(SCc2ccccn2)c2c(=O)n(C)c(=O)n(C)c2n1
  3% | -2 | -5% | -5%[15.4 µM] | 0.2% | 7 | 1.0
[51] Cc1noc(C)c1NC(=O)N(C)C[C@H]1Oc2ccc(NC(=O)C3CC3)cc2C(=O)N([C@H](C)CO)C[C@@H]1C
  10% | x | x | x | -0.3% | 8 | x
[52] CC(C)(C)[C@H]1COC(=O)CC/C=C\C[C@H](CC(=O)N(CCO)Cc2ccccc2)C(=O)N1
  8% | x | x | x | -3.5% | -3 | x
[53] Nc1cnccc1Oc1cccc(C(F)(F)F)c1
  6% | x | x | -16% | -1.3% | 9 | x
[54] COC(=O)CSc1nnc(CNc2ccc(Cl)cc2)n1-c1ccccc1
  0% | 2 | 17% | -35% | -1.0% | 7 | 8.3
[55] Cc1ccc(NC(=O)COC(=O)c2ccc(S(=O)(=O)N3CCCC3)cc2)cc1
  -19% | 12 | x | -21% | 2.0% | 2 | x
[56] COCCn1ccc2c(OCC(=O)Nc3cc(OC)ccc3OC)cccc2c1=O
  u | 6 | x | 18% | -1.8% | -17 | x
[57] O=C(NCc1cccs1)c1noc2c1CCCC2
  11% | 26 | 6% | u | -1.3% | 9 | -3.9
[58] C[C@@H]1CN([C@@H](C)CO)C(=O)c2cc(Br)cnc2O[C@H]1CN(C)Cc1ccccc1C(=O)O
  x | x | x | 18% | 1.8% | 3 | x
[59] O=C(CCc1nc2ccccc2c(=O)[nH]1)N1CCN(S(=O)(=O)c2cccc(F)c2)CC1
  -3% | -8 | 8% | -19% | 0.7% | 9 | 0.6
[60] C/C(N)=C(/C#N)C(=O)COC(=O)CNC(=O)c1ccc(Cl)cc1Cl
  6% | 4 | 8% | -20%[15.4 µM] | x | 13 | -4.9
[61] Cc1cc(C)n(C(C)CNS(=O)(=O)c2ccccc2)n1 (configuration not stated)
  4% | -3 | 13% | -21% | x | 3 | 1.3

Screening data from PubChem.
